# NPYLR7 ag = agonists of mosquito NPYLR7 receptor, primary screen, cell-based, Aedes aegypti, calcium fluorescence, mosquito biting behavior. Aedes aegypti neuropeptide Y-like receptor 7 (NPYLR7). activation, % at 10 µM. HEK293T NPYLR7/Galpha15, GCaMP6s calcium fluorescence. hit rate 0.15% among 270,000; in the data active means activation above about 40%;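 further: 0% = vehicle and 100% = reference agonist at the receptor; some compounds past the cut are filed as inactive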
# NPYLR7 ag max-min = second read-out of NPYLR7 ag, no call of its own (marks repeat the call); activation, %; measured here: Max-Min RFU normalised activation; some inactives read as strong as hits;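 span of the calcium signal over five minutes; 0% = vehicle and 100% = native peptide agonist; compound fluorescence can raise it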
# Starred values were filed as active, the others as inactive; & = joins results of further samples. Only part of the results is shown; count on the stated rates, not on these rows.
SMILES,NPYLR7 ag,NPYLR7 ag max-min
Cc1ccc2ncn(C3CCN(C(=O)c4cccc(Cl)c4)CC3)c2c1,3,15
CC[C@@H]1SC2(CCN(C)CC2)NC1=O,1,6
CCCCC(CC)C(=O)N1CCC(CCc2ccccc2)CC1 (stereo unspecified),4,3
Cc1ccccc1C(=O)NCCC(=O)N=c1sc2ccccc2n1C,-1,0
Cc1nnc(SCC(=O)N2CCOCC2)n1-c1cccc(Cl)c1,-6,8
CCc1nc2n(n1)C(=O)C(C(c1ccc(Cl)cc1)N1CCCC1)S2 (stereo unspecified),2,3
COC(=O)c1sc(NC(=O)COC(=O)C2CCC2)c(C(=O)OC)c1C,4,1
COC(=O)c1c(NC(=O)CCl)sc2c1CCCC2,4,4
CCc1nc2ccc(C(=O)NCCc3ccccn3)cn2c1N(C)C(=O)Cc1ccccc1,-5,-11
Cc1nc2ccccc2nc1SCCc1nc2ccccc2c(=O)[nH]1,4,-1
COc1ccc(N2CCN(C(=O)c3ccco3)C(C)C2=O)c(OC)c1 (stereo unspecified),0,1
Cc1cc(Br)ccc1NC(=O)CNC(=O)Cn1c(=O)n(C)c2ccccc21,10,14
CC(C)(C)NC(=O)NC(=O)COC(=O)CSC(C)(C)C,4,1
COc1cc(C=C2N=C(c3cc(OC)c(OC)c(OC)c3)OC2=O)ccc1OC(C)C,6,6
CNC(=O)CN(C(=O)c1sccc1OC)c1cccc(F)c1,1,2
CC(C)NC(=O)c1cnc(N2CCN(Cc3ccccc3)C2=O)s1,1,-2
COC(=O)c1ccc(C=NNc2ncnc3sc(C)c(C)c23)cc1,1,6
COc1ccccc1NC(=O)Cn1c2c(cc(C#N)c1=O)C(=O)CC(C)(C)C2,-1,-6
O=C(CSc1nc2c(-c3ccccc3)c[nH]c2c(=O)n1C1CC1)Nc1ccc2c(c1)OCCO2,-3,-6
CC(C)(C)c1csc(CO)n1,-11,-14
COC1(OC)N=C(N)C2(C#N)C(c3c(F)cccc3Cl)C12C#N (stereo unspecified),3,-1
CCCCOc1ccc(S(=O)(=O)Oc2cc(=O)n(-c3ccc(F)cc3)nc2C(=O)OCC)cc1,-3,-2
Cc1c(NCc2ccco2)nn2c(C(F)(F)F)nnc2c1C,3,-1
O=C(c1ccc2nc(CO)[nH]c2c1)N1C[C@@H]2[C@@H]3CC[C@@H](C3)[C@@H]2C1,-11,-11
CCN(CC)CCN(CC(C)C)C(=O)Nc1ccc(F)cc1,7,5

# (further entries)
SMILES,NPYLR7 ag,NPYLR7 ag max-min
COc1ccc(-n2nnc3c(SCC(=O)N4CCOCC4)ncnc32)cc1,-1,21
Cc1cccc(-c2ccnc3nc(N4CCN(C(=O)c5cc(C)oc5C)CC4)nn23)c1,-1,-2
CC(c1cn(-c2ccccc2)nn1)N1CCc2nn(C)c(=O)cc2C1 (stereo unspecified),0,-1
NC(=O)c1ccc(NC(=O)COC(=O)c2ccc(N3CCCCC3)c([N+](=O)[O-])c2)cc1,35,32
Cc1cc(C)n(C(=O)C2C3CC4CC(C3)CC2C4)n1 (stereo unspecified),-4,-10
CC(=O)NC1(c2noc(C=C(C3CC3)C3CC3)n2)CCN(C)CC1,2,0
NS(=O)(=O)c1ccc(NC(=O)C2=COCCO2)cc1,3,0
COCCCNC(=O)c1csc(CSc2nnc(-c3ccncc3)n2-c2cccc(Cl)c2)n1,-10,-14
C=CCNC(=O)COc1cccc2c(=O)n(CCC)ccc12,-2,19
CSc1nc(C)c(C(=O)Nc2ccccc2)c(-c2ccc(Br)cc2)c1C#N,16,11
COC(=O)c1ccc(NC(=O)CSc2nc(=O)n(CCCN(C)C)c3c2CCC3)cc1,0,-2
Cc1ccccc1-c1cc(NS(=O)(=O)c2ccc(Cl)s2)n[nH]1,-1,-3
CN1C(=CC=C(C#N)C#N)C=Cc2ccccc21,-6,-12
CCNc1cc(NCCNC(=O)CC(C)C)nc(C)n1,10,8
Cc1ccc(OCc2cc(C(=O)N3CC=C(c4ccc(F)cc4)CC3)no2)cc1C,1,-5
Clc1cccc(Cl)c1OCCOc1cccc2cccnc12,3,3
Cc1cccc(-c2cn[nH]c2C2CCN(C(=O)c3cnn4ccn(C)c34)CC2)c1,0,-1
CN(C)C(=O)c1ccc(Nc2nccc3c2cc(-c2ccccc2)n3C)cc1,-8,-12
CCc1cccc2c(C#N)cn(Cc3ccccc3F)c12,-2,-4
CC(=O)c1cccc(NC(=O)N2C(CO)CSCC2c2ccccc2)c1 (stereo unspecified),8,4
COCCOC(=O)C1C(=N)OC2=C(C(=O)CCC2)C1c1cccc([N+](=O)[O-])c1 (stereo unspecified),-4,-12
Cc1cc(C)c2c(c1)C[C@@H]1CCCC[C@H]1S2(=O)=O,-4,-9
O=C1CN(Cc2ccccc2O)CCN1Cc1ccc(F)cc1,6,-4
CCCCN(C)CC1CCN(C(C)c2nc(N)nc(N(C)C)n2)CC1 (stereo unspecified),-2,-2
CN1CCN(n2c3c(c(SCC(=O)NCc4ccc5c(c4)OCO5)nc2=O)CCCC3)CC1,-5,-12

# (listing goes on)
SMILES,NPYLR7 ag,NPYLR7 ag max-min
CCCSc1ncccc1C(=O)NCCSCc1ccccc1,-9,-11
Cc1ccc(S(=O)(=O)NCCc2csc3nc(-c4ccccc4)nn23)cc1,-2,3
COCC(c1ccccn1)N(C)C(=O)c1noc2c1CCCC2 (stereo unspecified),-4,-5
O=C1/C(=C\c2cnc(N3CCCC3)nc2)COc2c(F)cc(F)cc21,-7,-6
CCOCCC1(C(=O)Nc2ccc(CC)cc2)CCC1,0,0
c1ccc(CSc2nc3ccccc3n3cnnc23)cc1,-3,-1
COCC1CCCCN1C(=O)c1coc(COc2ccccc2)n1 (stereo unspecified),12,3
Cc1nn(C)c(Cl)c1CSCc1nccn1CC(F)(F)F,5,4
Cc1nn(Cc2ccccc2Cl)c(C)c1/C=C/C(=O)NC1(C)CCS(=O)(=O)C1 (stereo unspecified),9,5
COc1ccc(N(Cc2cc(C)on2)Cc2cc(C)on2)cc1,6,3
Cc1ccc(S(=O)(=O)N2CCC(c3c[nH]c4ccc(F)cc34)CC2)c2ccccc12,35,36
CCc1nc2ccc(C(=O)Nc3ccc(NC(C)=O)cc3)cn2c1N(CCC(C)C)CCN(C)C,-6,-11
COc1ccc(-c2cc(C(=O)NC3CCN(Cc4ccccc4)CC3)c(C)n2-c2ccccc2)cc1,-5,4
CCC(C)N(CC(=O)N(CCOC)Cc1cccn1Cc1ccccc1)C(=O)c1cccc(F)c1 (stereo unspecified),11,22
CC(C)(C)c1ccc(C(=O)NCC(=O)N=Nc2c(O)n(Cc3ccccc3)c3ccccc23)cc1,2,-7
CN(C)c1ncc(CNC2CC(C)(C)Cc3nc(C(C)(C)C)ncc32)s1 (stereo unspecified),11,3
O=C(NC1CCCCC1)N1CCN(c2ccc(-c3ccco3)nn2)CC1,13,10
COc1ccc(CCOc2nc(-c3ccccc3F)n(-c3ccc(NC(=O)c4cccs4)cc3)n2)cc1,1,2
Cc1ccc(-c2noc(-c3ccc(OC(=O)c4ccccc4)cc3)n2)cc1,6,9
COc1ccc(N=Nc2c(-c3ccc([N+](=O)[O-])cc3)[nH]n(-c3ccccc3)c2=O)c([N+](=O)[O-])c1,-7,-11
CC1CCCCC12NC(=O)N(CC(=O)N1CCCCCC1)C2=O (stereo unspecified),1,29
CCCOC1CCCN(C(=O)c2cc(Cl)ccc2O)C1 (stereo unspecified),1,-2
Cc1cc(C)nc(Nc2nc(C(N)Cc3ccc(Cl)cc3)cs2)n1 (stereo unspecified),-6,-11
O=c1cc(CSc2ccc(Cl)cc2)[nH]n1-c1nc2ccccc2s1,-2,-2
CCCn1c(=O)c2c(nc3n2CC(C)=NN3CCC(C)C)n(C)c1=O,10,12

# (listing goes on)
SMILES,NPYLR7 ag,NPYLR7 ag max-min
Cc1cc(C(=O)N2CCC3(CCN(C)CC3)C2)cc2sc(N)nc12,2,1
COc1ccc(CCN2CCCn3c2nc2c3c(=O)n(C)c(=O)n2C)cc1OC,6,2
OC[C@H]1O[C@@H](c2nc(-c3ccccc3OC(F)(F)F)no2)[C@H](O)[C@@H]1O,15,14
Nc1ccccc1NC(=O)c1ccc(CNc2nccc(-c3cccnc3)n2)cc1,-14,-20
CN(CC(=O)NC(C)(C)C)C(=O)C1(c2ccc(F)cc2)CC1,1,-2
Cc1cccc(C(C)Nc2nccnc2C#N)c1C (stereo unspecified),15,7
CCN(CC)C(=O)CSc1cn(CC(=O)N(C(C)C)C(C)C)c2ccccc12,-2,-7
CCc1ccc(C2CC(=O)Nc3cc4[nH]ncc4cc32)o1 (stereo unspecified),2,2
CC1(C(=O)NS(=O)(=O)c2ccc(C#N)cc2)CCN1C(=O)c1ccc(C2CCCCC2)cc1 (stereo unspecified),3,1
Cc1nnsc1C(=O)N1CCN(C(c2ccccc2)c2ccc(Br)cc2)CC1 (stereo unspecified),6,8
CC(C)(C)c1csc(-c2cccc(OCC(N)=O)c2)n1,-7,-7
COc1ccc(CCn2c(-c3cc(C(F)(F)F)ccc3F)nc3ccc(Cl)cc3c2=O)cc1,-2,-1
CN(C)S(=O)(=O)c1ccc(C(=O)Nc2c3c(nn2-c2ccc(F)cc2)CS(=O)C3)cc1 (stereo unspecified),-2,-4
COc1ccc2c(c1OC)C(=O)N(c1ccc(C)c(C)c1)C2=O,-1,-5
C#CCN(Cc1ccco1)C(=O)CC1OCCc2ccccc21 (stereo unspecified),5,3
CCCC1CN(C(=O)c2cc(C)oc2C)CCN1C(=O)c1cc(C)oc1C (stereo unspecified),11,6
COc1ccc2c(c1)C1(SCCN1C(=O)c1ccc(F)cc1)C(=O)N2Cc1c(F)cccc1F (stereo unspecified),-2,12
COCCCN1C(=O)/C(=C\c2ccc(-c3ccc(Cl)cc3)o2)SC1=S,-5,-12
CC(c1cc2ccccc2s1)N(O)C(N)=O (stereo unspecified),-4&-8,-9&-11
C[N+]([O-])=Cc1ccc(C(F)(F)F)cc1,-1,-1
O=C(C1COC2(CCCCC2)N1C(=O)c1ccccc1)N1CCOCC1 (stereo unspecified),-3,5
CCC(CC)n1ncc(C)c1NC(=O)COc1cccnc1,7,8
O=c1cc(-c2ccccc2)oc2cc(O)c(O)cc12,-4,-5
COc1ccc(Oc2coc3c(CN4CCOCC4)c(O)ccc3c2=O)cc1,-7,-12
CCOc1ccc(CNC(=O)Cc2sc(=S)[nH]c2C)cc1F,24,16

# 16 entries already listed, arranged by length of the SMILES, largest number first.
SMILES,NPYLR7 ag,NPYLR7 ag max-min
OC[C@H]1O[C@@H](c2nc(-c3ccccc3OC(F)(F)F)no2)[C@H](O)[C@@H]1O,15,14
COc1ccc2c(c1)C1(SCCN1C(=O)c1ccc(F)cc1)C(=O)N2Cc1c(F)cccc1F (stereo unspecified),-2,12
COc1ccc(CCn2c(-c3cc(C(F)(F)F)ccc3F)nc3ccc(Cl)cc3c2=O)cc1,-2,-1
CCN(CC)C(=O)CSc1cn(CC(=O)N(C(C)C)C(C)C)c2ccccc12,-2,-7
COc1ccc(CCN2CCCn3c2nc2c3c(=O)n(C)c(=O)n2C)cc1OC,6,2
Nc1ccccc1NC(=O)c1ccc(CNc2nccc(-c3cccnc3)n2)cc1,-14,-20
CCCC1CN(C(=O)c2cc(C)oc2C)CCN1C(=O)c1cc(C)oc1C (stereo unspecified),11,6
COc1ccc(Oc2coc3c(CN4CCOCC4)c(O)ccc3c2=O)cc1,-7,-12
CN(CC(=O)NC(C)(C)C)C(=O)C1(c2ccc(F)cc2)CC1,1,-2
COc1ccc2c(c1OC)C(=O)N(c1ccc(C)c(C)c1)C2=O,-1,-5
CCOc1ccc(CNC(=O)Cc2sc(=S)[nH]c2C)cc1F,24,16
C#CCN(Cc1ccco1)C(=O)CC1OCCc2ccccc21 (stereo unspecified),5,3
CCC(CC)n1ncc(C)c1NC(=O)COc1cccnc1,7,8
C[N+]([O-])=Cc1ccc(C(F)(F)F)cc1,-1,-1
Cc1cccc(C(C)Nc2nccnc2C#N)c1C (stereo unspecified),15,7
CC(c1cc2ccccc2s1)N(O)C(N)=O (stereo unspecified),-4&-8,-9&-11

# Next records follow.
SMILES,NPYLR7 ag,NPYLR7 ag max-min
O=C(Nc1ccc2nc(C3CCCCC3)[nH]c2c1)C1COCCO1 (stereo unspecified),-5,-7
Cc1nc(C(NS(=O)(=O)CC2CCCC2)c2ccccc2)n[nH]1 (stereo unspecified),-1,-3
COc1ccccc1-c1cccc(-c2cccc(NC(=O)c3c(F)c(F)c(F)c(F)c3F)c2)n1,-7,-13
O=C(NCCSCc1c(Cl)cccc1Cl)c1cncn1-c1cccc(-c2ccccc2C(F)(F)F)c1,11,-1
Cc1cc(C(=O)N2CCCC(C)C2)ccc1NCc1nc(C2CC2)no1 (stereo unspecified),4,2
COc1ccc(NC(=O)CNC(=O)CNC(C)C)cc1,-5,0
COc1ccc(-n2ccnc2-c2ccc(C3CCCCO3)o2)cn1 (stereo unspecified),29,18
Cc1nccn1-c1ccccc1CNC(=O)C1CCN(C(C)C)CC1,4,-4
CCOC(=O)CCC(=O)N1CCN(c2ncccc2C(=O)NCc2ccc(OC)cc2)CC1,22,13
CCOC(=O)C1=C(C)NC(C)=C(C(=O)OCC)C1C(=O)OCC(=O)NC(C)C,5,4
COC(=O)c1sc(N2C(=O)C(O)=C(C(=O)c3ccc(C)o3)C2c2ccc(Cl)cc2)nc1C (stereo unspecified),4,5
CC1(CC(=O)c2ccccc2F)C(=O)Nc2ccc(-c3cccc(C(F)(F)F)c3)cc21 (stereo unspecified),0,3
Cc1cccc(COCC2CN(C(=O)c3cnc(C)cn3)CCO2)c1 (stereo unspecified),-2,-2
Cc1noc(C)c1CN1CCN2C(C(=O)NCCCN(C)C)=COC2=NC1=O,18,17
CCOc1ccc(C2CC(=O)Nc3snc(C)c32)cn1 (stereo unspecified),0,-1
CC1=NN(c2ccccc2)C(=O)/C1=C\c1ccccc1F,-1,-4
O=C(c1ccc(N2CCCS2(=O)=O)cc1)N1CCN(S(=O)(=O)c2ccccc2)CC1,-6,-9
Cc1cccc(NC(=O)CSc2ccc(-c3sc(C)nc3C)nn2)c1,3,-5
O=C1CNC(=O)N1CCSC1CCCC1,8,3
CC(COc1ccccc1)NCc1noc(C2CCCC2)n1 (stereo unspecified),12,1

# Compound activity (PubChem)
